KCNQ2 enhance – KCNQ2 (rat) channel potentiation. CHO-K1 KCNQ2, FluxOR thallium flux fluorescence; active compounds read high. AID 2239. O88943. B-score at 10 µM. 0.54% of 310,000 active;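 active means fluorescence ratio B-score at least 3 SD of library B-scores, with initial fluorescence B-score within 3 SD, cut at about 5.3 in these data; same plate scores as AID 2156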;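 further: B-score of peak minus minimum over baseline fluorescence ratio after K+ and Tl+ stimulus; positive B-score means potentiation of KCNQ2 with more thallium influx and brighter signal; only the inactives scoring about 0 or higher are listed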
Target sequence (O88943 whole entry, looked up): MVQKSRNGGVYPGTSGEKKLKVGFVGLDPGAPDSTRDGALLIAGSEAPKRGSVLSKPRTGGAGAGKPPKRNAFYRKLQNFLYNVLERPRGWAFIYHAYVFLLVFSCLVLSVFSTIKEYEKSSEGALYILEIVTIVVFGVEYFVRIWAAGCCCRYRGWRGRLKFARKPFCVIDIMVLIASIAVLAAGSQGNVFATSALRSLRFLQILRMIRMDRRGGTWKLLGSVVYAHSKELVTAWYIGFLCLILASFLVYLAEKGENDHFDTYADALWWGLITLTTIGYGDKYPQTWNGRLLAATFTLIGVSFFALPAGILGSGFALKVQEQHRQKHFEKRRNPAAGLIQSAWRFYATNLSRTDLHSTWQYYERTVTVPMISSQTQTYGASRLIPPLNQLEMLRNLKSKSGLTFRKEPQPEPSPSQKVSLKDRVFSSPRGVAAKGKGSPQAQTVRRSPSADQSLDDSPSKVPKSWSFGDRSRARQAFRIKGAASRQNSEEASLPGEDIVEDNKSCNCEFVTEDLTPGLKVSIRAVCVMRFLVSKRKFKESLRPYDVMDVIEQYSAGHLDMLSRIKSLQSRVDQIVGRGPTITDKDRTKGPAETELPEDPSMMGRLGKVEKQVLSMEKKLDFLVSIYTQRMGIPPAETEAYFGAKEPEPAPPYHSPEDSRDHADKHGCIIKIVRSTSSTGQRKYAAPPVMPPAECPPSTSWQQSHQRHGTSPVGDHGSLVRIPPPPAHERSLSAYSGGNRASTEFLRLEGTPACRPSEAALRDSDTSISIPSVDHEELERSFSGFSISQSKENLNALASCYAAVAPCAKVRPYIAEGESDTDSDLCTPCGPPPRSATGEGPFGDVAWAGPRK
KCNQ2 enhance baseline – second read-out of KCNQ2 enhance, no call of its own (marks repeat the call); B-score; compound at 10 µM; measured here: initial fluorescence intensity artifact check;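 brightness before thallium and not channel activity; 0 = typical well and far values either way flag optical interference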
An asterisk follows results filed as active.

Each structure is followed by: KCNQ2 enhance | KCNQ2 enhance baseline
> O=C(COC(=O)/C=C/c1cccc([N+](=O)[O-])c1)NCC1CCCO1 (centres undefined)
    1.2 | -3.1
> O=C(O)c1ccccc1-c1ccccc1C(=O)Nc1ccc(OC(F)(F)F)cc1
    1.4 | -0.19
> Cc1ccc(Nc2nc3nonc3nc2N(C)C)cc1
    0.08 | -0.12
> C#CCn1c(CCNC(=O)c2ccco2)nc2ccccc21
    1.4 | -4.5
> CNC(=S)Nc1cccc(C(=O)O)c1
    0.01 | -1.5
> NC(=O)c1c(NC(=O)c2ccc(F)cc2)sc2c1CCC2
    0.01 | 1.1
> CCCCC(=O)Nc1cc(Cl)ccc1C(=O)O
    0.62 | 0.48
> COc1ccc(N2CCN(C(=O)C3CCN(S(=O)(=O)c4ccc5c(c4)oc(=O)n5C)CC3)CC2)cc1
    1.9 | -1.2
> COc1ccccc1NC(=O)COC(=O)CC(C)(C)CC1=NS(=O)(=O)c2ccccc2N1
    1.9 | 0.57
> CCCCn1c(N)c(N(CC)C(=O)CSCc2c(C)noc2C)c(=O)[nH]c1=O
    0.25 | 0.45
> O=C1CC(C(=O)Nc2ccc(Br)cc2)C2(CCCC2)O1 (centres undefined)
    0.55 | -0.64
> Cc1ccc(C(=O)N2Cc3ccccc3CC2C(=O)O)cc1 (centres undefined)
    2.3 | -2
> CCC(NC(=S)NCc1ccc(F)cc1)c1ccc(C(C)C)cc1 (centres undefined)
    7.2* | 1.4*
> COC(=O)C1=C(C)NC(C)=C(C(=O)OC)C1C1CC=CCC1 (centres undefined)
    0.24 | -0.13
> NC(=O)C1CCN(CCCNC2CC(=O)N(Cc3ccc(N4CCCC4=O)cc3)C2=O)CC1 (centres undefined)
    0.51 | 1.6
> COc1cccc(C(=O)OCC(=O)NC(=O)NC2CCCC2)c1O
    0.79 | 0.06
> N#CC1=C(N)C2=C(N3CCCCC3)CCCC2C1(C#N)C#N (centres undefined)
    1.2 | 0.72
> CN1/C(=C/C(=O)C2CCC2)Sc2ccccc21
    0.12 | 1.6
> Cc1ccccc1CC(=O)NCC1CCCCC1
    4.2 | 2.9
> COc1cc(OC)cc(C(=O)Nc2ccc3c(c2)OCCO3)c1
    0.21 | -1.2
> COC(=O)C1C(=O)C=C(Nc2ccc(F)cc2)CC1c1ccc(OC)cc1 (centres undefined)
    1.1 | -0.9
> COc1ccc(/C=C(\NC(=O)c2ccco2)C(=O)N2CCCCC2)cc1
    1.2 | -0.4
> Cc1cc(=O)[nH]c2cc(Cl)ccc12
    1.7 | 0.69
> COc1cc(C2CC(c3c(C)cc(C)[nH]c3=O)=NN2c2ccccc2F)cc(OC)c1OC (centres undefined)
    1.1 | 0.6
> CCCn1nnc(NC(=O)c2ccc(Cl)cc2Cl)n1
    0.18 | -1.8
> Cc1nn(-c2ccccc2)c(C)c1CN
    0.03 | -2.4
> COc1ccc(NC(=O)COc2nc3ccccc3nc2N2CCOCC2)c(OC)c1
    0.23 | -1.3
> CCOC(=O)Cn1c(=O)oc2cc(S(=O)(=O)N(C)c3cccc(C)c3)ccc21
    0.21 | 0.47
> CCOC(=O)C1CCCN(CCC(=O)Nc2ccc(F)c(F)c2)C1 (centres undefined)
    0.06 | 0.48
> Cc1ccc(NC(=O)C2CCN(c3ncnc4sc(C)c(C)c34)CC2)cc1S(=O)(=O)N(C)C
    0.99 | 0
> O=C(Cn1cc([N+](=O)[O-])cn1)NC1CCCCCC1
    0.03 | -1.7
> Nc1c(Cl)cnc(C(Cl)(Cl)Cl)c1Cl
    1.4 | -1.2
> COc1ccc(S(=O)(=O)Nc2ccc(-c3ccc(N4CCCC4)nn3)cc2)cc1C
    0.42 | -1.3
> COc1ccc(CCC(=O)N2CCN(S(=O)(=O)c3ccc4ccccc4c3)CC2)cc1
    0.1 | 3.5
> COc1ccc(C2NS(=O)(=O)OCC2C)cc1 (centres undefined)
    0.89 | 0.06
> COc1ccc(CC(=O)NNc2ncnc3c2cnn3C)cc1OC
    1.6 | 1.2
> COc1cc(C)c(CN2CCCCC2CO)cc1C (centres undefined)
    0.22 | 1.6
> Cc1ccc(S(=O)(=O)CCC(=O)OC(C)C(=O)N2CCc3ccccc32)cc1 (centres undefined)
    1.1 | -1.2
> CCn1cc(C(=O)NCC(C)C)c(=O)c2cc(F)c(N3CCN(C)CC3)cc21
    1.5 | 1.4
> Oc1ccc(/C=N/Nc2nccnc2Cl)c(O)c1
    1.4 | 0.01

5 entries out of the list, ordered by length of the SMILES, high to low.
Each structure is followed by: KCNQ2 enhance | KCNQ2 enhance baseline
> COc1ccc(N2CCN(C(=O)C3CCN(S(=O)(=O)c4ccc5c(c4)oc(=O)n5C)CC3)CC2)cc1
    1.9 | -1.2
> COc1ccccc1NC(=O)COC(=O)CC(C)(C)CC1=NS(=O)(=O)c2ccccc2N1
    1.9 | 0.57
> O=C(O)c1ccccc1-c1ccccc1C(=O)Nc1ccc(OC(F)(F)F)cc1
    1.4 | -0.19
> Nc1c(Cl)cnc(C(Cl)(Cl)Cl)c1Cl
    1.4 | -1.2
> Cc1cc(=O)[nH]c2cc(Cl)ccc12
    1.7 | 0.69

Additional structures.
Each structure is followed by: KCNQ2 enhance | KCNQ2 enhance baseline
> CC(C)(C)N1CC(c2nc3ccccc3n2CCOc2ccccc2)CC1=O (centres undefined)
    1.5 | 0.21
> COc1cccc2cc(C(=O)N3CCN(c4ncccn4)CC3)c(=O)oc12
    0.14 | 1.3
> COc1cccc(CNC(=O)C(=O)NCCC2CCCCN2S(=O)(=O)c2ccccc2)c1 (centres undefined)
    1 | -0.65
> O=C1CSC(c2ccc(F)cc2)N1c1nc2ccccc2s1 (centres undefined)
    0.06 | -0.39
> CC(C)NS(=O)(=O)c1ccc(NC(=O)Cc2cccs2)cc1
    1.4 | -1.6
> COc1ccc(CCNC(=O)c2ccc(CN3CCC(Cc4ccccc4)CC3)cc2)cc1OC
    0.73 | -1.1
> CSCC[C@H](NC(=O)c1cccs1)c1nnc2ccccn12
    1.2 | -1.5
> CCN(CC)CCN(CC(=O)N(C1CCCCC1)C1CCCCC1)C(=O)c1cccnc1
    0.32 | -0.12
> NC(=O)Nc1n[nH]c(-c2ccccc2)n1
    1.1 | -2.1
> O=C(Nc1cccc(Cl)c1)Nc1cccc(C(=O)O)c1
    0.99 | -0.08
> Cc1ccc(-c2ccc(/C=C3/NC(=O)NC3=O)o2)cc1[N+](=O)[O-]
    3.2 | -2.9
> Cc1ccc(Nc2c3c(nc4ncnn24)CCC3)cc1
    1.7 | 0.15
> COc1ccc(S(=O)(=O)Nc2nc(C(F)(F)F)cs2)cc1
    1.6 | 0.33
> O=C(NCc1ccc(Cl)cc1)c1nccnc1CO
    0.28 | 0.36
> Cc1cc(C)c(C#N)c(Sc2ccc(N)cc2)n1
    0.71 | 1.1
> CCCC(C(=O)NC(C)(C)C)N(CCN1CCOCC1)C(=O)CNS(=O)(=O)c1ccccc1 (centres undefined)
    2.2 | -2
> CN1CCN(C(=O)c2cc(-c3ccccc3)on2)CC1
    0.54 | 0.7
> COc1ccc(OCC(=O)NC(=O)c2ccccc2OC)c([N+](=O)[O-])c1
    0.38 | 1.6
> COc1ccc(Cc2nnc(SCC(=O)c3ccc4c(c3)NC(=O)CO4)o2)cc1
    0.29 | -1.6
> NC(=O)CC(NC(=O)c1ccccc1)c1ccc(NC2CCCCCCC2)c([N+](=O)[O-])c1 (centres undefined)
    0.01 | -1.1
> COc1ccc(-c2ccc(SCc3cccnc3)nn2)cc1OC
    0.29 | 1.4
> O=C(CC(NC(=O)OCc1ccccc1)C(=O)O)OCc1ccccc1 (centres undefined)
    1.2 | -3.3
> COc1ccc(C(=O)n2nc(-c3ccc(Cl)cc3)nc2N)cc1OC
    0.25 | 0.67
> COc1c(C(=O)Nc2ccc(CN3CCOCC3)cc2)cc2ccccc2c1Br
    0.03 | 0.14
> COc1cccc(OC)c1C(=O)Nc1cc(C)nn1-c1nc2ccccc2[nH]1
    0.64 | -0.24
> C#CCOc1ccc(Br)cc1/C=N/O
    0.19 | -0.82
> CCOC(=O)[C@@H]1CCNC[C@@H]1c1ccccc1
    1.7 | -0.09
> Cc1ccc(OCCCCn2ccnc2)c([N+](=O)[O-])c1
    0.63 | 2.6
> CCCn1nc(C(=O)N2CC(=O)Nc3ccccc32)c2ccccc2c1=O
    0.2 | -0.07
> CCOc1ccccc1NC(=S)NC(=O)c1ccco1
    4.7 | 0.21
> CSc1ncnc2c1cnn2-c1ccc(C)cc1C
    0.26 | 0.34
> NS(=O)(=O)c1ccc(CCN=C(NS(=O)(=O)c2cccs2)c2ccccc2)cc1
    0.32 | -0.44
> CSCCC(=O)N1CCC(n2nccc2NC(=O)CCCc2ccccc2)CC1
    0.56 | 0.18
> Cc1cc2nc(C)n(CCCNC(=O)Nc3ccc(C#N)cc3)c2cc1C
    1.8 | -0.58
> COc1ccc(C(=O)Nc2nnc(SCC(=O)NC3CCCC3)s2)c(OC)c1
    0.73 | 1.3
> Cc1cc(C)c(S(=O)(=O)N2CCCOC2CNC(=O)C(=O)NCc2cccnc2)c(C)c1 (centres undefined)
    0.07 | 2.5
> O/N=C1\CC2(Cc3nonc31)OCCO2
    0.44 | -0.43
> O=C(O)c1ccc(-c2noc(-c3ccccc3Cl)n2)cc1
    1.1 | -1.6
> O=C(CSc1oc(-c2cccs2)nc1S(=O)(=O)c1ccccc1)NC1CCCCC1
    0.99 | -2
> O=C(Nc1ccccc1)/C(=C/c1ccccc1)NC(=O)c1ccco1
    1.1 | -0.1
> COC(=O)N/N=C(C)/C=C/c1ccccc1
    0.65 | 1.2
> CCOc1ccccc1NC(=O)NCc1ccccc1F
    1.7 | 0.03
> O=C(Nc1cccc(F)c1)/C(=C\c1cccnc1)NC(=O)c1cccs1
    0.97 | -0.04
> COc1ccccc1N1CCN(C(CNS(=O)(=O)c2ccc(C)cc2)c2cccnc2)CC1 (centres undefined)
    0.33 | -0.78
> COc1cccc(C(C(=O)NC2CCCC2)N(C(=O)CNC(=O)c2ccco2)c2cccnc2)c1 (centres undefined)
    1.3 | 0
> COc1cc(-c2c(NC(=O)c3ccco3)oc3c(C)cccc3c2=O)cc(OC)c1OC
    1.5 | 2
> O=C(Nc1nc2ccccc2s1)Nc1ccc(F)cc1F
    0.64 | 0
> COc1cc(C2C(C#N)=C(N)N(c3sc4c(c3C#N)CCCC4)C3=C2C(=O)CC(C)(C)C3)cc(OC)c1OC (centres undefined)
    1 | -0.87
> Cc1ccc(-n2nc3c(=O)n(CC(=O)NCCC4=CCCCC4)nc(C)c3c2C)cc1
    0.33 | -0.83
> [NH-]c1ncnc2c1N=C[N+]2=CC=CCO
    1.7 | 0.26
> CC1(C)CC(NC(=O)C2CCN(S(=O)(=O)c3ccccc3C(F)(F)F)CC2)CC(C)(C)N1
    1.6 | -3.1
> CC(=O)c1ccc(N2CCN(S(=O)(=O)c3c(C)[nH]c(C)c3C(=O)N3CCCC3)CC2)cc1
    1.8 | -0.85
> CCn1nc(C)c(CN2CCCC(CNS(=O)(=O)c3ccc(OC)cc3)C2)c1C (centres undefined)
    0.43 | 0.01
> Cn1c(=O)[nH]c(=O)c2c1nc(SCCC(=O)O)n2Cc1cccc(Br)c1
    0.32 | 0.21
> Cc1noc(C)c1C(=O)NCc1cccs1
    0.61 | 0.05
> O=C(CN1C(=O)NC2(CCCC2)C1=O)Nc1ccc(F)c(F)c1F
    0.8 | 0.45
> COc1ccc(-c2csc(Cc3nnc4n3CCCCC4)n2)cc1
    0.5 | -0.14
> COC(=O)C(=C/C(C)=C/c1cccnc1)C(=O)OC
    1.5 | -0.03
> Cc1ccc(S(=O)(=O)N(C)C)cc1NC(=O)Nc1ccccc1
    1.6 | -1.2
> O=C(Nc1ccc(Cl)cn1)c1ccc([N+](=O)[O-])o1
    1.9 | -0.79

New compounds follow:
Each structure is followed by: KCNQ2 enhance | KCNQ2 enhance baseline
> COc1ccc(NC(=O)c2cccs2)c([N+](=O)[O-])c1
    0.44 | 1.1
> CCOC(=O)CSc1nnc(Cn2nnc3ccccc32)n1-c1ccc(F)cc1
    0.69 | -2.1
> Cc1cc(C)n(/N=C/c2ccco2)c(=O)c1C#N
    0.02 | 0.13
> Cc1ccc(OCC(=O)NCCO)c(Br)c1
    0.39 | -1.8
> Cc1cc(Cl)ccc1NC(=O)c1ccc2c(c1)OCO2
    0.11 | 0.17
> Cc1ccc(C(=O)Cn2nc(C)c([N+](=O)[O-])c2C)c(C)c1
    0.64 | -0.64
> O=C(NCCc1cn2ccccc2n1)C1CCCCC1
    0.73 | 0.98
> CCc1ccc2oc(=O)cc(CN(C)Cc3ccccc3)c2c1
    2.6 | -1.5
> CCOC(=O)N1CCC(NC(=O)c2ccc(CS(=O)(=O)c3c(Cl)cccc3Cl)o2)CC1
    0.68 | 0.54
> COc1ccc(CCNc2ccc(S(=O)(=O)N3CCN(C)CC3)cc2[N+](=O)[O-])cc1
    0.62 | -0.21
> Cc1cc(=O)oc2c(C)c(OC(=O)c3ccco3)ccc12
    0.76 | -1.1
> Cc1cccc(N2CCN(Cc3nc(C4CC4)no3)CC2)n1
    1.3 | 1.1
> Cc1cc(C)nc(SCCn2c(N3CCCCC3)nc3c2c(=O)n(C)c(=O)n3C)n1
    0.12 | -3.8
> COc1ccccc1/C=C1\N=C(C(C)(C)C)OC1=O
    0.44 | -0.06
> Cc1ccc(-c2c[n+](CC(=O)Nc3ccccc3C)c3n2CCC3)cc1
    0.08 | -1.1
> CCN(CC)C(=O)CSc1nc(O)cc(=O)n1C
    0.02 | -0.04
> Nc1cc(-c2nc3ncccc3o2)ccc1Cl
    0.26 | 0.93
> CCOc1ccc(NS(=O)(=O)c2cc(C)c(C)cc2C)cc1
    0.51 | 1.5
> CCCCc1nc(SCC(=O)N2CCCCC2)c2c(=O)n(C)c(=O)n(C)c2n1
    26* | -0.03*
> COc1ccc(C(=O)N/N=C/c2ccc(OC)c(CN3CCc4cc(OC)c(OC)cc4C3C)c2)cc1 (centres undefined)
    0.03 | 0.86
> CC(C)CCc1c(O)nc(SCC(C)C)[nH]c1=O
    3.1 | -2.4
> CSc1ccc(S(=O)(=O)NC2CC3CCC2C3)cc1 (centres undefined)
    1.4 | -0.32
> Cc1cc(N2CCOCC2)nc2ccc(NC(=S)N3CCN(Cc4ccccc4)CC3)cc12
    0.08 | -0.6

Screening results (PubChem)

An excerpt; rates above refer to the full screens.
